# CSC inhib = blocks cancer stem cells; 1.1% of 300,000 active; inhibition, % at 7.5 µM; cancer stem cell-like cells viability, luminescence; AID 2717;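 active = mean at 75% or more and at least half the replicates too; inconclusive = mean and replicates disagree; tested in HMLE shEcad cells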;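 also: 0% = median of negative and 100% = median of positive control wells; the first replicate is given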
# eIF4H inh = inhibitors of RNA binding by human eIF4H. AID 2012. inhibition, % at 35 µM. 0.94% of 290,000 active. eIF4H fluorescence polarization binding assay;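 active = 50% or more with normal probe brightness, or confirmed in later tests; inconclusive = above 50% with abnormal brightness, or retests that disagree; inactive = below 50% or failed in later tests; about a fifth of its hits are not listed in these tables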;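 also: calls also rest on retests at 20 µM and on dose response follow-up; 0% = protein and probe with vehicle and 100% = probe without protein; strong numbers were not always called active; many hits fall short of the cut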
# Rce1 inh = yeast Ras-converting enzyme inhibition. calls only. yeast membranes, quenched prenylated peptide cleavage fluorescence. 0.27% of 290,000 active. Q03530;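 active = fall in fluorescence gain of 50% or more versus controls, with final raw signal at or below 3038400; inconclusive = same 50% fall but final raw signal above 3038400; inactive = fall in fluorescence gain under 50%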;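 also: plate controls were neutral control wells for no effect and wells lacking membranes for full effect; tested at 10 µM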
# Target sequence (Q03530 whole entry, looked up): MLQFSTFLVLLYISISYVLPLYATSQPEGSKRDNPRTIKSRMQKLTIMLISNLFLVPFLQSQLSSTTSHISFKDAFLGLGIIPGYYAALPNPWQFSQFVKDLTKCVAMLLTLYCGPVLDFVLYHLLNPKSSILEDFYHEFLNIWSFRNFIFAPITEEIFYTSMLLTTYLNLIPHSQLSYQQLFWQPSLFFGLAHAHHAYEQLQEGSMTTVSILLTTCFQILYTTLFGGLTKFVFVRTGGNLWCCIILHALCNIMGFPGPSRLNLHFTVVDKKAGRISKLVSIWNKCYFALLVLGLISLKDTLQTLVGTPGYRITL
# Yeast UUG start = modulators of start codon recognition fidelity in yeast | S. cerevisiae UUG-firefly luciferase reporter, luminescence/redox ratio | activity score, % at 18.7 µM | 0.13% of 350,000 active;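 active = replicate mean at a twofold rise or more, about +100% in these data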;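 also: firefly luciferase made from a UUG start codon reports start codon fidelity; reporter light over untreated wells divided by growth signal over untreated wells; some hits fall short of that in this replicate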
# HIV Env fusion = blocks HIV Env-driven cell-cell fusion. AID 651610. 1.1% of 360,000 active. HeLa-JRFL Env/CEM21 cell fusion, luciferase. inhibition, % at 12.3 µM;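 active = mean replicate inhibition score of at least 50 and every replicate individually at or above 50; inconclusive = only one of the two criteria met; inactive = mean below 50 and not all replicates reaching 50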;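 also: 0% = plate neutral controls and 100% = maraviroc near 300 nM; one replicate is shown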
# PABP polyA inh = blocks human PABP binding to poly(A) RNA | AID 2014 | fluorescence polarization | 1% of 290,000 active | P11940 | inhibition, % at 35 µM;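 active = 50% or more with normal probe brightness, or confirmed in later tests; inconclusive = above 50% with abnormal brightness, or retests that disagree; inactive = below 50% or failed in later tests; about a fifth of its hits are not listed in these tables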;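 also: calls also rest on retests at 20 µM and on dose response follow-up; controls were probe without protein and protein plus probe with vehicle; some compounds called inactive have numbers as strong as hits; many hits fall short of the cut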
# MT1-MMP act inh = inhibitors of human MT1-MMP activation; P50281; HT1080 RFP-PRO-GFP cells, GFP/RFP ratio fluorescence, overnight; percent of plate control window, DMSO zero; GFP/RFP ratio change, % at 20 µM; 0.061% of 360,000 active;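 active = GFP/RFP ratio change of at least 30% with cell ATP level not reduced by more than half and red fluorescence within 50% of control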; also: strong numbers were not always called active
#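 Compound: 20 µM single dose, 1% DMSO / System: HT1080 RFP-PRO-GFP cells / Controls: DMSO and RFP-L50D-GFP cell wells / Read-out basis: GFP/RFP fluorescence ratio / Schedule: overnight compound exposure at 37 °C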
# eIF4H inh retest = further read-out of eIF4H inh, marked with its call; inhibition, %; compound at 20 µM; confirmation average;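 mean of two retest wells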
# PABP polyA inh retest = further read-out of PABP polyA inh, marked with its call; inhibition, %; compound at 20 µM; confirmation repeats;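 mean of two retest wells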
# MT1-MMP act inh RFP = second read-out of MT1-MMP act inh, no call of its own (marks repeat the call); RFP signal change, %; measured here: RFP expression control read;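 0 = vehicle wells; hits needed this value within 50% of zero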
# * = called active by the depositor; i = inactive; ? = inconclusive; nt = not tested or not shown.
# The first 2 entries as a preview:
SMILES,CSC inhib,eIF4H inh,Rce1 inh,Yeast UUG start,HIV Env fusion,PABP polyA inh,MT1-MMP act inh,MT1-MMP act inh RFP,others
O=C(CN1C(=O)CC(c2ccccc2)S(=O)(=O)c2ccccc21)NC1CCCC1 (stereo unspecified),1,-6,nt,2,-4,11,-2,-2,
CC(=O)Nc1cc(NC(C)=O)cc(C(=O)OCC(=O)N(c2ccccc2)C2CCS(=O)(=O)C2)c1 (stereo unspecified),nt,nt,nt,5,7,nt,-2,-1,

# Main list, previewed entries included:
SMILES,CSC inhib,eIF4H inh,Rce1 inh,Yeast UUG start,HIV Env fusion,PABP polyA inh,MT1-MMP act inh,MT1-MMP act inh RFP,others
O=C(CN1C(=O)CC(c2ccccc2)S(=O)(=O)c2ccccc21)NC1CCCC1 (stereo unspecified),1,-6,nt,2,-4,11,-2,-2,
CC(=O)Nc1cc(NC(C)=O)cc(C(=O)OCC(=O)N(c2ccccc2)C2CCS(=O)(=O)C2)c1 (stereo unspecified),nt,nt,nt,5,7,nt,-2,-1,
Cc1ccc(N2C(=O)CC(Cn3nc(C)cc3C)C2=O)cc1 (stereo unspecified),-14,-1,i,-14,-39,-3,5,3,
CCn1c(COc2ccccc2)nnc1SCC(=O)NC1CC1,0,1,i,-19,9,-2,7,5,
Cc1nn2c(nc1=O)NNC2(C)C(C)(C)C (stereo unspecified),-10,-6,i,nt,5,-4,-1,0,
CN(CC(=O)NCc1ccc(Cl)cc1)S(=O)(=O)c1cccs1,-5,-2,i,-4,-4,2,-2,-1,
Cc1ccc2c(c1)c1nc3ccccc3nc1n2C,0,?,i,-22,-27,?,-4,-1,
O=S(=O)(NCc1nnc2c(C(F)(F)F)cc(Cl)cn12)c1ccccc1,-14,-6,i,-23,2,1,3,5,
CSc1ccccc1NC(=O)c1noc2c1CCC2,2,90*,i,-21,-67,26*,2,0,eIF4H inh retest=80*;PABP polyA inh retest=57*
Cn1nc(C(C)(C)C)cc1C(=O)N1CCCC(C)(C(=O)NS(=O)(=O)C2CC2)C1 (stereo unspecified),nt,nt,nt,-34,15,nt,-1,8,
Cc1nc2ccccc2c(=O)n1N(c1ccccc1)c1ccccc1,-10,4,i,-4,1,-9,2,-1,
O=C(NCCCc1ccncc1)C1CCC(=O)N(Cc2cccc(C(F)(F)F)c2)C1 (stereo unspecified),-18,-13,i,-4,25,6,-2,-4,
O=C(O)c1ccc(-c2ccccc2C(F)(F)F)o1,-13,0,i,-10,nt,12,2,1,
NC(=O)CSc1nc(-c2ccccc2Cl)ns1,-4,-1,nt,-4,-76,-1,-2,-2,
COc1ccc(NC(=O)c2sc(NC(=O)C3CC3)nc2C)cc1,1,-4,i,-15,-8,3,1,2,
c1ccc(-c2[nH]ncc2-c2nc3ccccc3[nH]2)cc1,nt,-4,i,-6,nt,-3,-2,-2,
Cc1cc(NS(=O)(=O)c2ccc(NC(=O)COc3ccc(Cl)cc3Cl)cc2)no1,-7,-10,i,-8,5,-10,7,1,
CC/C(=N\NC(=S)Nc1cccc(C)c1)c1ccccc1,12,1,i,nt,-20,3,0,2,
CCn1c(SCC(=O)NC2CC2)nnc1-c1ccccc1,nt,nt,nt,15,30,nt,0,-4,
Cc1ccc(-c2cc(C(=O)N3CCCc4ccccc43)no2)cc1,6,0,nt,-6,-71,-3,0,-2,
CC(=O)N1N=C(c2ccc3ccccc3c2)OC12CCCC2,6,-1,i,nt,11,0,1,-9,
Nc1nnc(CCCCc2cccs2)o1,nt,-18,nt,-9,nt,-4,0,6,
COc1ccc(C(=O)Nc2ccc(O)c3ccccc23)cc1OC,1,nt,i,-12,5,nt,2,4,
O=C(CCNc1n[nH]c(=O)[nH]c1=O)N/N=C/c1ccc(Cl)cc1,-17,-9,i,nt,-3,7,6,6,
C=CCn1cc(C(=O)NCC2CCCO2)c(=O)c2cc(S(=O)(=O)N3CCCCCC3)ccc21 (stereo unspecified),nt,-1,nt,-1,-17,2,3,4,
COC(CN(C)C(=O)C1CCCN(S(=O)(=O)c2ccc3c(c2)oc(=O)n3C)C1)OC (stereo unspecified),3,-10,i,-16,-8,7,1,4,
CC(=O)Nc1ccc(NC(=O)c2cc(-n3cnnc3)ccc2Cl)cc1,nt,-5,i,-21,-1,-3,4,6,
COc1ccc(C2=NC(C(F)(F)F)(C(F)(F)F)c3c(n(C)c(=O)n(C)c3=O)N2)cc1,0,-2,nt,-19,39,-1,-4,-11,
CC(=O)c1ccc(NC(=O)c2ccn[nH]2)cc1,-2,2,i,-49,-76,4,-1,0,
O=C(Cn1cnc(S(=O)(=O)N2CCCC2)c1)Nc1cccc(Br)c1,-10,3,i,-14,7,8,1,-2,
CC(C)Nc1nc(NC(C)C)nc(N(C)n2cnnc2)n1,-8,-6,i,-8,nt,23,10,-1,
CC(Sc1nnc(CN2CCCC2)n1Cc1ccccc1)C(=O)Nc1ccccc1 (stereo unspecified),14,nt,nt,8,13,nt,0,1,
Cc1cccc(Nc2ccc(S(=O)(=O)N3CCOCC3)cc2[N+](=O)[O-])c1,8,nt,nt,-13,-4,nt,4,-6,
Cc1ccccc1C(=O)NC1CCS(=O)(=O)C1 (stereo unspecified),-8,6,i,-7,13,-12,1,3,
CCCCNC(=O)Nc1c(C)cc(SC#N)cc1C,4,1,i,nt,-98,2,-4,-5,
Oc1ccccc1C1N=C(c2ccccc2)NC(c2ccccc2)=N1,-15,-4,i,-23,-92,5,2,3,
CCN(CC)C(=O)c1nc[nH]c1C(=O)N1CCN(C(=O)OC(C)(C)C)CC1,-18,nt,nt,-20,7,nt,-2,8,
CCCCN1C(=O)C(CC(=O)NC(c2ccccc2)c2ccccc2)CC(C(=O)N(C(C)C)C(C)C)=C1C (stereo unspecified),nt,nt,nt,-8,-157,nt,-7,-8,
N#Cc1c(NC(=O)CSc2nc3ccccc3s2)sc2c1CCCC2,-5,29,i,1,4,-2,3,0,
O=C(Nc1ccccc1C(=O)O)c1cccc(NC(=O)c2ccc(Br)o2)c1,11,3,i,-18,nt,-5,-1,0,
C[C@@H]1NC(=O)/C(=C\c2ccccc2Br)NC1=O,nt,0,i,-1,14,8,-2,3,
Nc1nn(-c2ccccc2)c(N)c1N=Nc1ccc2c(c1)OCO2,54,5,i,nt,-246,29,3,-10,
CNC(=O)NC(=O)CSc1nnc(C(F)(F)F)n1C,-7,-2,i,-16,10,-8,0,-9,
CC(=O)c1ccc(OCc2cc(C(=O)N(C)Cc3nc4c(C)cccc4[nH]3)no2)cc1,-1,1,i,-10,23,-7,-50,-41,
CC(=O)N1CCc2cc(S(=O)(=O)CCC(=O)Nc3ccc(Cl)cc3F)ccc21,-4,30,i,5,2,17,6,2,
COc1ccc2nc(NC(=O)CSc3nnc(-c4ccoc4C)n3C)sc2c1,3,-7,i,-1,nt,-6,4,-1,
Cc1cccc(N2CCN(C(=S)NCc3ccco3)CC2)c1C,-7,3,i,-37,nt,-6,2,1,
CCN(C(=O)C(C)OC(=O)c1nn(-c2ccccc2C(F)(F)F)cc1O)c1ccccc1 (stereo unspecified),5,nt,nt,9,1,nt,0,0,
COc1ccc(NC(=O)CSc2nc(C)c3c(c2C#N)CCCC3)cc1,-6,-2,i,-11,-28,-11,6,-1,
CCCOc1ccc(-c2nn(-c3ccccc3)cc2/C=C2\SC(N)=NC2=O)cc1C,34,-8,i,-16,-5,1,-5,-7,
C/C(=N/NS(=O)(=O)c1cccc([N+](=O)[O-])c1)c1ccncc1,nt,-15,i,-13,nt,8,0,-1,
Cc1ccc(C(=O)N2CCCC(c3ccccc3)=N2)cc1,-5,1,i,nt,-16,-8,0,0,
COc1ccc(CCNC(=O)NC23CC4CC(CC(C4)C2)C3)cc1,6,-5,i,-5,nt,2,0,-8,
O=C(O)CCC(=O)NCCc1cccc(Cl)c1,11,-13,i,nt,2,-8,2,7,
O=[n+]1cc(-c2ccc(F)cc2)n([O-])c2c1CCC2,nt,0,i,-11,nt,-2,2,-3,
O=C(CSc1n[nH]c(=O)n1CCc1ccccc1)NC1CCCC1,nt,nt,nt,-4,-1,nt,2,12,
O=C(Nc1ccc(NC(=O)c2cccs2)cn1)c1ccco1,-3,2,i,-33,-99,-6,8,8,
O=C1C2C3CCC(C3)C2C(=O)N1CNc1ccc(F)cc1 (stereo unspecified),0,8,i,-16,-12,1,-2,3,
Cc1cc(C)n(/N=C/c2cc([N+](=O)[O-])ccc2O)c(=O)c1,10,2,i,nt,9,-1,-1,3,
CCOc1ccc(CONS(=O)(=O)c2ccc(NC(C)=O)cc2)cc1Cl,10,2,i,nt,17,11,-4,-7,
CC1(C)C[C@@H]2C[C@@](C)(CN2C(=O)c2ccccc2)C1,-21,-3,i,-3,10,-3,2,0,
CC(NC(=O)Cn1c(NCCO)nc2ccccc21)C1CC2CCC1C2 (stereo unspecified),-10,-1,i,nt,17,-12,-2,0,

# Some of these compounds in order of heavy-atom count, falling:
SMILES,CSC inhib,eIF4H inh,Rce1 inh,Yeast UUG start,HIV Env fusion,PABP polyA inh,MT1-MMP act inh,MT1-MMP act inh RFP,others
CCCCN1C(=O)C(CC(=O)NC(c2ccccc2)c2ccccc2)CC(C(=O)N(C(C)C)C(C)C)=C1C (stereo unspecified),nt,nt,nt,-8,-157,nt,-7,-8,
CCN(C(=O)C(C)OC(=O)c1nn(-c2ccccc2C(F)(F)F)cc1O)c1ccccc1 (stereo unspecified),5,nt,nt,9,1,nt,0,0,
O=C(NCCCc1ccncc1)C1CCC(=O)N(Cc2cccc(C(F)(F)F)c2)C1 (stereo unspecified),-18,-13,i,-4,25,6,-2,-4,
Cc1cc(NS(=O)(=O)c2ccc(NC(=O)COc3ccc(Cl)cc3Cl)cc2)no1,-7,-10,i,-8,5,-10,7,1,
CC(NC(=O)Cn1c(NCCO)nc2ccccc21)C1CC2CCC1C2 (stereo unspecified),-10,-1,i,nt,17,-12,-2,0,
CC(=O)Nc1ccc(NC(=O)c2cc(-n3cnnc3)ccc2Cl)cc1,nt,-5,i,-21,-1,-3,4,6,
Cc1ccc(-c2cc(C(=O)N3CCCc4ccccc43)no2)cc1,6,0,nt,-6,-71,-3,0,-2,
COc1ccc(NC(=O)c2sc(NC(=O)C3CC3)nc2C)cc1,1,-4,i,-15,-8,3,1,2,
CN(CC(=O)NCc1ccc(Cl)cc1)S(=O)(=O)c1cccs1,-5,-2,i,-4,-4,2,-2,-1,
Cc1ccc(C(=O)N2CCCC(c3ccccc3)=N2)cc1,-5,1,i,nt,-16,-8,0,0,
CNC(=O)NC(=O)CSc1nnc(C(F)(F)F)n1C,-7,-2,i,-16,10,-8,0,-9,
Cc1ccccc1C(=O)NC1CCS(=O)(=O)C1 (stereo unspecified),-8,6,i,-7,13,-12,1,3,
Cc1nn2c(nc1=O)NNC2(C)C(C)(C)C (stereo unspecified),-10,-6,i,nt,5,-4,-1,0,
Nc1nnc(CCCCc2cccs2)o1,nt,-18,nt,-9,nt,-4,0,6,

# Screens as filed in PubChem.
